# GIRK2 activ: opens human GIRK2 potassium channels; AID 1259325; HEK293-GIRK2 thallium flux, Thallos fluorescence; hit rate 0.05% among 63,000; calls only for hits at 25 µM; P48051;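 active means among the strongest 0.2% of first-round signals and kept after retests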;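 further: first round at about 10 µM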
# Target sequence (P48051 whole entry, looked up): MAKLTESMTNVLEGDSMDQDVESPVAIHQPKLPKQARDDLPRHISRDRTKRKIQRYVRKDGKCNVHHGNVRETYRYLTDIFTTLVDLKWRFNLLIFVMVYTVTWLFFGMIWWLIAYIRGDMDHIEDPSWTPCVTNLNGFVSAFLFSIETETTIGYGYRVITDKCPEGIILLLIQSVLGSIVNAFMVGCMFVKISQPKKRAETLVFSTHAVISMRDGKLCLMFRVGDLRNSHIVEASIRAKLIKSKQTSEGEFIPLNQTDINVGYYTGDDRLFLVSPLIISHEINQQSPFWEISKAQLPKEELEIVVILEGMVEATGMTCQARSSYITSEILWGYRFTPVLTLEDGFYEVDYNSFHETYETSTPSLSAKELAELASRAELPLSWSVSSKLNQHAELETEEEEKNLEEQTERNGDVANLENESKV
# Calls only; i = inactive. Some of the compounds tested; rates above refer to the full screens.
SMILES | GIRK2 activ
Cn1c(=O)n(CCN2CCCCC2)c(=O)c2c1nc1n2CCCN1Cc1ccccc1 | i
Cc1ccc(C)c2sc(N3CC(OC(=O)c4c(F)cccc4F)C3)nc12 | i
CS(=O)(=O)c1ccc2nc(N(Cc3cccnc3)C(=O)/C=C/c3ccccc3Cl)sc2c1 | i
CCOc1ccccc1-n1nnc(C(=O)OCc2nc(-c3ccccc3)oc2C)c1C | i
Cc1cccc(-n2nnc(-c3nc4ccccc4s3)c2N)c1 | i
O=C(Nc1ccc2c(c1)OCO2)N1CCN(c2cc(N3CCCC3)ncn2)CC1 | i
Cc1noc(CNC(=O)C2CCN(C(=O)c3ccc4nsnc4c3)CC2)n1 | i
COc1ccc(CC(=O)NCCNc2ccc(-n3cccc3)nn2)cc1 | i

# Carrying on.
SMILES | GIRK2 activ
COc1cccc2cc(C(=O)NCc3ccsc3)oc12 | i
CCNC(=O)C1CCCN(c2nc3ncn(CC(=O)Nc4ccc(C(C)C)cc4)c(=O)c3s2)C1 (stereo not given) | i
COc1ccccc1-c1coc2cc(OC(=O)C(C)C)ccc2c1=O | i
Nc1c(-c2nc(-c3cccc(Cl)c3)cs2)nnn1-c1ccc(F)cc1 | i
O=C(Nc1ccc(NC(=O)C2Nc3ccccc3S(=O)(=O)N2)cc1)c1ccco1 (stereo not given) | i
Nc1c(C(=O)c2cccc(C(O)(CO)CO)c2)cnn1-c1ccc(F)cc1 | i
C=CC[n+]1ccn(-c2nc3ccccc3nc2[N-]S(=O)(=O)c2cccs2)c1 | i
COc1ccc(SCCCC(=O)Nc2nc3c(s2)C(=O)CC(C)(C)C3)cc1 | i

# Next records:
SMILES | GIRK2 activ
CCc1ccc(Oc2cc(N3CCC(C(=O)N4CCCC(C)C4)CC3)ncn2)cc1 (stereo not given) | i
COC(=O)c1sc2cccc(F)c2c1S(=O)(=O)Nc1ccc(C)c(Cl)c1 | i
O=C(NC1CCN(Cc2noc(-c3ccccc3)n2)C1)c1ccc2c(c1)OCO2 (stereo not given) | i
Cc1cc(C)cc(N2CC(c3nc(-c4ccc(Br)cc4)no3)CC2=O)c1 (stereo not given) | i
N#Cc1c(C(=O)c2ccccc2)cnn1-c1ccccc1 | i
O=C(NCC1CCN(Cc2ccsc2)CC1)Nc1cccc(C(F)(F)F)c1 | i
CN1CCN(c2nc3c(c(=O)[nH]c(=O)n3C)n2CC(=O)c2ccc(Cl)cc2)CC1 | i
O=C(COc1cccc(C(F)(F)F)c1)NCCn1ncccc1=O | i

# Three compounds from above, sorted by heavy-atom count, rising.
SMILES | GIRK2 activ
O=C(COc1cccc(C(F)(F)F)c1)NCCn1ncccc1=O | i
COC(=O)c1sc2cccc(F)c2c1S(=O)(=O)Nc1ccc(C)c(Cl)c1 | i
O=C(NCC1CCN(Cc2ccsc2)CC1)Nc1cccc(C(F)(F)F)c1 | i

# Later entries:
SMILES | GIRK2 activ
C[C@@H]1CC[C@H]2C(C)(C)[C@H](O)[C@H](O)C[C@]2(C)[C@@]12Cc1c(O)cc3c(c1O2)CNC3=O | i
N#Cc1nc(-c2ccc(S(=O)(=O)N3CCOCC3)cc2)oc1N1CCOCC1 | i
Cc1cc(=O)[nH]c(-n2nc(C3CC3)cc2NC(=O)c2ccc(S(=O)(=O)N(C)C)cc2)n1 | i
O=C(NOCC(O)CO)c1ccc(F)c(F)c1Nc1ccc(I)cc1F (stereo not given) | i
N=C1c2ccccc2CN1c1ccc(-c2nnc3n2CCCCC3)cc1 | i
CCSc1nnc(NC(=O)c2coc(NC(=O)C3CCC3)n2)s1 | i
COCCNc1oc(-c2ccc(COc3ccc(Cl)cc3)o2)nc1C#N | i
COc1ccccc1CNC(=O)Cn1nc(-c2cccs2)ccc1=O | i

# Next results follow.
SMILES | GIRK2 activ
CCOC(=O)c1cccc(Nc2c(C(=O)N3CCOCC3)cnc3nc(C)ccc23)c1 | i
CCCCn1c(C2CC(=O)N(c3ccc(C)c(Cl)c3)C2)nc2ccccc21 (stereo not given) | i
COc1ccc(S(=O)(=O)N2CCCOC2CNC(=O)C(=O)NCc2ccc(C)cc2)cc1OC (stereo not given) | i
CC(O)(CCc1ccccc1)CNS(=O)(=O)c1cccc2ccccc12 (stereo not given) | i
CCCCCNc1nc2c(c(=O)[nH]c(=O)n2C)n1CC(O)COc1cccc(CC)c1 (stereo not given) | i
CCCCc1ccc(S(=O)(=O)c2cnc(SCC(=O)NCc3cccs3)[nH]c2=O)cc1 | i
O=S(=O)(c1ccc2c(c1)OCCO2)N1CCCC(COCc2ccccc2)C1 (stereo not given) | i
O=[N+]([O-])c1ccc(S(=O)(=O)n2nc3ccccc3n2)cc1 | i

# The last 7 compounds of the section above lead into the next:
SMILES | GIRK2 activ
CCCCn1c(C2CC(=O)N(c3ccc(C)c(Cl)c3)C2)nc2ccccc21 (stereo not given) | i
COc1ccc(S(=O)(=O)N2CCCOC2CNC(=O)C(=O)NCc2ccc(C)cc2)cc1OC (stereo not given) | i
CC(O)(CCc1ccccc1)CNS(=O)(=O)c1cccc2ccccc12 (stereo not given) | i
CCCCCNc1nc2c(c(=O)[nH]c(=O)n2C)n1CC(O)COc1cccc(CC)c1 (stereo not given) | i
CCCCc1ccc(S(=O)(=O)c2cnc(SCC(=O)NCc3cccs3)[nH]c2=O)cc1 | i
O=S(=O)(c1ccc2c(c1)OCCO2)N1CCCC(COCc2ccccc2)C1 (stereo not given) | i
O=[N+]([O-])c1ccc(S(=O)(=O)n2nc3ccccc3n2)cc1 | i
Fc1ccc(-c2ncn(C3CCNCC3)c2-c2ccnc(Oc3ccc(F)c(F)c3)n2)cc1 | i
C=CCn1c(SCC(=O)Nc2ccccc2O)nc2sc3c(c2c1=O)CCC3 | i
O=C(NCC1CCC(c2nc3ccccc3[nH]2)CC1)c1ccc(=O)[nH]n1 (stereo not given) | i
CCOc1ccc(-n2c(=S)sc3c(=O)[nH]c(SCC(=O)Nc4c(C)cccc4C)nc32)cc1 | i
Cc1ccc(=O)n(CC(=O)NCc2ccc3c(c2)OCO3)n1 | i
CCOC(=O)C(C)Oc1ccc2c(=O)c(-c3ccc(Cl)cc3)coc2c1 (stereo not given) | i
CCOc1ccc2nc(NC(=O)c3coc(NC(=O)c4cnccn4)n3)sc2c1 | i
O=C(Nc1ccccc1)OC1CCCC(NC(=O)C(=O)c2c[nH]c3ccccc23)C1 (stereo not given) | i

# The list continues:
SMILES | GIRK2 activ
COc1cc(C)c(C(=O)OC2C(C)OC(OC3CCC(C)C4C3C=C(C)C3/C(C)=C/CC/C(C)=C/C5(C)C=C(C(=O)O)C(C)CC56OC(=O)C(=C(O)C34C)C6=O)C(O)C2O)c(OC)c1 (stereo not given) | i
COc1ccccc1S(=O)(=O)N1CC(Oc2nc3c(C(F)(F)F)cccc3s2)C1 | i
NC(=O)Cc1csc(NC(=O)Cc2csc(-n3cccc3)n2)n1 | i
O=C(Cc1ccc(NS(=O)(=O)c2c(F)cccc2F)cc1)NCc1cccs1 | i
Cc1ccc(-n2ccnc(SCC(=O)NC3CCCCC3)c2=O)cc1 | i
COc1ccc(CCNC(=O)Nc2ccc3c(c2)C(=O)Nc2ccccc2O3)cc1 | i
O=C(Cn1cnc2c(-c3ccc(Cl)cc3)csc2c1=O)NCCc1ccccc1 | i
Cc1cc(C)c(NC(=O)CN2C(=O)C3(SCC(=O)N3c3cccc(F)c3)c3ccccc32)c(C)c1 (stereo not given) | i

# Following part:
SMILES | GIRK2 activ
Cn1c(=O)[nH]c(=O)c2c1nc(N=Nc1c(O)[nH]c3ccccc13)n2CCc1ccccc1 | i
CCCn1c(=O)c2ccc(C(=O)NC(C)C)cc2n2c(=O)n(CC(=O)Nc3ccc(C)cc3C)nc12 | i
COC(=O)Nc1nc2c(s1)CN(C(=O)C(c1ccccc1)c1ccccc1)CC2 | i
Cc1ccc(Cn2c(SCc3ccccc3)nc3c2c(=O)n(C)c(=O)n3C)cc1 | i
COc1ccc(CNC(=O)Nc2ccc3c(c2)N(S(=O)(=O)c2ccccc2)CCC3)cc1OC | i
CSc1cccc(C(=O)Nc2nnc(-c3cccs3)o2)c1 | i
CCCC[N+](C)(CCCC)CC(O)COc1ccc2ccccc2c1 (stereo not given) | i
O=C(c1ccoc1)N1CCC(N2CCCC2=O)CC1 | i

# Continued:
SMILES | GIRK2 activ
CC(O)(CNC(=O)c1cc(-c2ccccc2)on1)c1ccco1 (stereo not given) | i
Cn1cc(-c2ccc(F)cc2)c2ncn(CC(=O)Nc3cc(F)cc(F)c3)c(=O)c21 | i
COc1ccccc1Oc1ccc(S(=O)(=O)NC(C(=O)O)C(C)C)cc1 (stereo not given) | i
O=C(c1ccc(CNS(=O)(=O)c2cccc(Cl)c2)cc1)N1CCCC1 | i
COc1cc(C(=O)Nc2ccc3c(c2)CCC(=O)N3Cc2ccccc2)cc(OC)c1OC | i
CCn1c(C)cc(O)c(C(c2ccc(O)cc2)c2c(O)cc(C)n(CC)c2=O)c1=O | i
CCCOc1ccc(/C=C/C(=O)Nc2ccccc2OC)cc1 | i
CC(=O)c1cccc(S(=O)(=O)N2CCC(Oc3nc4c(F)cccc4s3)CC2)c1 | i

# Additional results:
SMILES | GIRK2 activ
O=C(NCC1(c2ccc(F)cc2)CCOCC1)c1cccc(Br)c1 | i
Cn1c(C(F)(F)F)nn(CCNS(=O)(=O)c2ccccc2C(F)(F)F)c1=O | i
COc1ccc(-c2noc(-c3ccc(=O)n(CC(=O)N4CCCC4)n3)n2)cc1F | i
COc1ccc(Cl)cc1C(=O)NCC1CCN(C(=O)c2ccoc2)CC1 | i
S=c1[nH]nc2scc(-c3ccc(Cl)cc3)n12 | i
CCOc1ccccc1-c1noc(C2CCCN(S(=O)(=O)c3cccs3)C2)n1 (stereo not given) | i
COc1cc(Nc2ncc3c(C)nc(-c4cccc(C(F)(F)F)c4)n3n2)cc(OC)c1OC | i
CCCCC/C=C\C/C=C\C/C=C\C/C=C\CCCC(=O)OC(CO)CO | i

# (cont.)
SMILES | GIRK2 activ
COC(=O)Cn1c(=NC(=O)c2nn(C)cc2C)sc2c(C)cc(C)cc21 | i
Cc1ccc(-n2cc(C(=O)N3CCC(NC(=O)CCC4CCCC4)CC3)nn2)cc1C | i
N#CCn1c(=O)c(Oc2ccc(F)cc2F)cc2cnc(NC3CCOCC3)nc21 | i
CCOC(=O)c1oc2cc(OS(C)(=O)=O)ccc2c(=O)c1-c1ccc(OC)c(OC)c1 | i
Cc1cn(-c2ccc(SCC(=O)NCc3ccc4c(c3)OCO4)nn2)cn1 | i
CC(C)CCNC(=O)/C(C#N)=C1\N=C(NC(=O)c2ccccc2F)c2ccccc21 | i
COCCN1CCC(NC(=O)C2CCCCC2)CC1 | i
CC(=O)N1CCCc2ccc(NC(=O)C(=O)Nc3cc(Cl)ccc3C)cc21 | i

# Additional records:
SMILES | GIRK2 activ
O=C(CC(c1ccccc1)c1ccccc1)NC1CC(=O)N(C2CC2)C1 (stereo not given) | i
CCOc1cc(C(=O)N(CCc2cccs2)Cc2ccco2)cc(OCC)c1OCC | i
COc1ccc(S(=O)(=O)NCCCc2ccc(N(C)C)cc2)cc1F | i
CC(=O)c1cccc(NS(=O)(=O)c2ccc(N3C(=O)CCC3=O)c(C)c2)c1 | i
Cn1nc2n(C)c(=O)c3ccc(C(=O)NC4CCCC4)cc3n2c1=O | i
COc1ccc(NC(=O)CC2(CC3=NS(=O)(=O)c4ccccc4N3)CCCC2)cc1OC | i
COc1cc2[nH]c(=O)n(CCCCC(=O)N3CCN(c4ccccn4)CC3)c(=O)c2cc1OC | i
COc1ccc(NC(C)=O)cc1NC(=O)c1csc2nc(-c3ccc(F)cc3)cn12 | i

# Going on with the list.
SMILES | GIRK2 activ
COc1ccc(CC(C)(O)CNC(=O)C(=O)NCc2ccccc2Cl)cc1 (stereo not given) | i
O=C(CNC(=O)c1c[nH]c2ccccc12)Nc1ccc2c(c1)OCO2 | i
CCOc1ccc(-c2noc(CSc3nccn3-c3ccccc3)n2)cc1 | i
C=C(C)COc1ccc(-c2ncncc2Oc2ccccc2Br)c(O)c1 | i
CN(C)c1ccc(C(=O)NCCCCCCC(=O)NO)cc1 | i
Cc1ccccc1C(=O)N(Cc1ccsc1)CC(F)(F)F | i
COc1cc(NC(=O)Cn2ccn3nc(-c4ccc(Cl)cc4)cc3c2=O)cc(OC)c1 | i
O=C(CSc1nc2c(sc3ncccc32)c(=O)n1Cc1ccccc1)Nc1ccccc1F | i

# Going on with the list:
SMILES | GIRK2 activ
COc1ccc(OC)c(NC(=O)c2c[nH]c3c(C(F)(F)F)cccc3c2=O)c1 | i
O=C(Cn1c(=O)[nH]c2c(-c3ccccc3F)c[nH]c2c1=O)NCCCc1ccccc1 | i
Cc1cnc(-n2nnc(C(=O)NCc3ccccc3OC(F)(F)F)c2C)s1 | i
COc1ccccc1N1CCN(C(=O)c2sc3ncccc3c2-n2cccc2)CC1 | i
COc1cc(NC(=O)Nc2nc3c(s2)-c2cccc4cccc-3c24)cc(OC)c1OC | i
COc1ccc(OCc2noc(CNC(=O)Cn3c(=O)oc4ccccc43)n2)cc1 | i
O=S(=O)(NCCN1CCN(c2ccccc2)CC1)c1ccc(Cl)s1 | i
COc1ccc(-n2c(C)cn3c4c(=O)n(Cc5ccccc5C)c(=O)n(C)c4nc23)cc1 | i

# Further results:
SMILES | GIRK2 activ
Cc1nc(-n2nc(-c3cccs3)cc2NC(=O)c2cc3ccccc3o2)[nH]c(=O)c1C | i
C=CCOc1ccc(C(O)=C2C(=O)C(=O)N(Cc3cccnc3)C2c2cccs2)cc1 (stereo not given) | i
COc1ccccc1C(=O)Nc1ccc(Cn2cnc(C(=O)Nc3cccc(Cl)c3C)c2)cc1 | i
O=C(NC1CC(=O)N(C2CC2)C1)C1CCC1 (stereo not given) | i
c1ccc2c(c1)OCC(CNc1ncnc3[nH]ncc13)O2 (stereo not given) | i
CC(C)N(C(=O)Nc1ccccc1F)C(C)C | i
O=C(O)CCCCCCCCCCCNC(=O)NC12CC3CC(CC(C3)C1)C2 | i
COc1ccc(N2CCCn3c2nc2c3c(=O)n(CC(C)C)c(=O)n2C)cc1 | i

# Remaining list, next part
SMILES | GIRK2 activ
O=C(CN1CCN(Cc2cccc3ccccc23)CC1)c1ccco1 | i
CC(=O)c1sc(NC(=O)c2sc3nc(-c4ccccc4)cn3c2C)nc1C | i
Cc1cccc(N2CCN(c3nccnc3SCC(=O)Nc3ccc4c(c3)OCO4)CC2)c1C | i
CC(C)(C)c1ccc(S(=O)(=O)NCC2CCN(C(=O)c3ccncc3)CC2)cc1 | i
Cc1cccc(N2CCN(C(=O)C3CCN(c4ncnc5c4oc4ccccc45)CC3)CC2)c1C | i

# Screening results from PubChem BioAssay.
